Source: PubChem BioAssay
CBX7 inh = blocks human CBX7 binding to H3K27me3 peptide; normalised signal (fraction of DMSO) (concentration not given with the values); 1.1% of 66,000 active; AlphaScreen His6-CBX7 / biotin-H3K27me3 peptide binding; stronger effect = lower value; O95931; AID 1224903; in the data active means normalised signal below about 0.5;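 further: 100 nL library stock added to about 20 µL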
Target sequence (O95931 whole entry, looked up): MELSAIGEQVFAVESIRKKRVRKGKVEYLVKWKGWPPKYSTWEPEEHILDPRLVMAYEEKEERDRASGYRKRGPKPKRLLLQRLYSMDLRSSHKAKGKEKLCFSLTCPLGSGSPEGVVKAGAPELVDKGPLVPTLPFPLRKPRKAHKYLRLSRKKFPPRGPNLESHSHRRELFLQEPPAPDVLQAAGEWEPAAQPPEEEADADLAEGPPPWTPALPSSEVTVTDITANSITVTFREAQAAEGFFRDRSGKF
CBX7 inh z-score = further read-out of CBX7 inh, marked with its call; z-score; measured here: z-score of CBX7 signal; some inactives read as strong as hits; reference of the scale not given here;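 same signal on another scale; lower means less binding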
* = called active by the depositor. The list is partial (hit frequency here may not be typical).

`O=C(Nc1ccc(Cl)cc1)C1CCCN(S(=O)(=O)c2cccs2)C1` (configuration not stated) gave CBX7 inh 0.98 and CBX7 inh z-score -0.41.
Cc1cc(=O)n2c(-c3ccccc3C)n[nH]c2n1 was read as CBX7 inh 0.94 and CBX7 inh z-score -1.1.
CN1CCN(C(=O)N2c3ccccc3CCc3ccccc32)CC1 was read as CBX7 inh 0.89 and CBX7 inh z-score -1.2.
O=c1cc(N2CCN(c3ccccc3)CC2)[nH]c(=O)n1-c1ccc(Cl)cc1 was read as CBX7 inh 0.99 and CBX7 inh z-score -0.093.
For Cc1ccc(-c2nnc(Nc3cccc(O)c3)c3ccccc23)cc1S(N)(=O)=O the results were CBX7 inh 0.93 and CBX7 inh z-score -2.2.
For CC(C)(C)c1ccc(Cn2c(-c3nonc3N)nc3ccccc32)cc1 the results were CBX7 inh 1.1 and CBX7 inh z-score 1.5.
Screening O=S(=O)(c1ccccc1)N1CCN(c2nnc(-c3ccccc3)c3ccccc23)CC1 returned CBX7 inh 1.1 and CBX7 inh z-score 1.2.
Screening CCOc1ccc(CNC(=O)c2cc(-c3ccc(Br)s3)nc3ccccc23)cc1 returned CBX7 inh 1 and CBX7 inh z-score -0.042.
Cc1sc2ncn(CC(=O)NCC(=O)Nc3ccc(Oc4ccccc4)cc3)c(=O)c2c1C was read as CBX7 inh 1.1 and CBX7 inh z-score 1.1.
Screening Cn1nc(C(F)(F)F)cc1C(=O)Nc1ccc(Br)cn1 returned CBX7 inh 0.93 and CBX7 inh z-score -0.79.
Screening CCc1ccccc1NC(=O)COCc1cc(-c2ccc(F)cc2)on1 returned CBX7 inh 1.1 and CBX7 inh z-score 1.
Screening CCOc1ccc(CC2CC(=O)NC2=O)cc1 (configuration not stated) returned CBX7 inh 1 and CBX7 inh z-score 0.13.

A draw from above in order of molecular weight, low to high:
Screening CCOc1ccc(CC2CC(=O)NC2=O)cc1 (configuration not stated) returned CBX7 inh 1 and CBX7 inh z-score 0.13.
CN1CCN(C(=O)N2c3ccccc3CCc3ccccc32)CC1 was read as CBX7 inh 0.89 and CBX7 inh z-score -1.2.
Screening Cn1nc(C(F)(F)F)cc1C(=O)Nc1ccc(Br)cn1 returned CBX7 inh 0.93 and CBX7 inh z-score -0.79.
For Cc1ccc(-c2nnc(Nc3cccc(O)c3)c3ccccc23)cc1S(N)(=O)=O the results were CBX7 inh 0.93 and CBX7 inh z-score -2.2.
Screening CCOc1ccc(CNC(=O)c2cc(-c3ccc(Br)s3)nc3ccccc23)cc1 returned CBX7 inh 1 and CBX7 inh z-score -0.042.

Remaining list, next part
`COc1ccc(N2CCN(C(=O)c3ccc(C#Cc4ccccc4)cc3)CC2)cc1` gave CBX7 inh 0.98 and CBX7 inh z-score -0.56.
For Cc1cc(C)cc(NS(=O)(=O)c2ccc3[nH]cc(C(=O)N(C)Cc4ccccc4)c(=O)c3c2)c1 the results were CBX7 inh 0.9 and CBX7 inh z-score -1.8.
`CCCCC(NC(=O)c1ccc(F)cc1)c1nc2ccccc2n1C` (configuration not stated) gave CBX7 inh 1.2 and CBX7 inh z-score 1.2.
`O=C(CCc1ccccc1)Nc1c2c(nn1-c1cccc(Cl)c1)CS(=O)(=O)C2` gave CBX7 inh 0.86 and CBX7 inh z-score -0.93.
For Cc1cc(C)n2nc(C)c(-c3ccc(Cl)cc3)c2n1 the results were CBX7 inh 1.2 and CBX7 inh z-score 5.4.
`CC(C)c1cc(C(=O)Nc2cccc(C(F)(F)F)c2)no1` gave CBX7 inh 1.1 and CBX7 inh z-score 1.1.
Cc1cc(C)cc(N2C(=O)c3ccccc3C2C(=O)NC2CCCC2)c1 (configuration not stated) was read as CBX7 inh 1 and CBX7 inh z-score 0.62.
Screening FC(F)(F)c1cccc(N2CCN(c3ccc4nnc(-c5ccccc5)n4n3)CC2)c1 returned CBX7 inh 0.87 and CBX7 inh z-score -3.
CCOc1ccc(N2C(=O)CC(NCCc3ccccc3OC)C2=O)cc1 (configuration not stated) was read as CBX7 inh 0.94 and CBX7 inh z-score -1.6.
Screening COc1ccc(CN(C(=O)c2ccc(OC(C)C)cc2)C2CCS(=O)(=O)C2)cc1 (configuration not stated) returned CBX7 inh 0.96 and CBX7 inh z-score -0.036.
Cc1ccc(Cn2nnc3c(=O)n(Cc4c(F)cccc4Cl)cnc32)cc1 was read as CBX7 inh 0.86 and CBX7 inh z-score -2.2.
For CCCn1c(C2CC(=O)N(c3cc(C)ccc3C)C2)nc2ccccc21 (configuration not stated) the results were CBX7 inh 1.1 and CBX7 inh z-score 0.4.
For CCOc1ccc(-n2c(CC)nc3c(cnn3-c3ccc(C)c(C)c3)c2=O)cc1 the results were CBX7 inh 0.85 and CBX7 inh z-score -1.9.
Screening Cc1ccc(NC(=O)Cn2c(SCc3ccc(F)cc3)nc3ccncc32)c(Cl)c1 returned CBX7 inh 0.99 and CBX7 inh z-score -0.38.
For O=C(CC1Oc2ccccc2NC1=O)Nc1ccc(F)cc1F (configuration not stated) the results were CBX7 inh 0.96 and CBX7 inh z-score -0.74.
For COc1cccc(-c2cc(C(=O)Nc3ccccc3C(F)(F)F)c3ccccc3n2)c1 the results were CBX7 inh 1.1 and CBX7 inh z-score 2.4.
CCn1cc(C(=O)Nc2cc(Cl)c(OC)cc2OC)c(=O)c2ccc(C)nc21 was read as CBX7 inh 1.1 and CBX7 inh z-score 1.7.
Screening Cc1cc(=O)n2nc(N3CCCC(C(=O)NCc4ccccc4Cl)C3)sc2n1 (configuration not stated) returned CBX7 inh 1.2 and CBX7 inh z-score 1.8.
For CCOc1ccc(CN2C(=O)c3ccccc3Sc3ccc(C(=O)NC)cc32)cc1 the results were CBX7 inh 1.3 and CBX7 inh z-score 1.4.
For Cc1ccc2c(c1)-c1c(cnn1CC(=O)Nc1ccccc1Cl)CO2 the results were CBX7 inh 0.94 and CBX7 inh z-score -1.1.
For COc1ccc(NC(=O)c2cccnc2Nc2ccc(Cl)cc2)cc1 the results were CBX7 inh 0.95 and CBX7 inh z-score -0.19.
For Cc1ccc(-n2nc3c(c2NC(=O)C2CCCC2)CSC3)cc1 the results were CBX7 inh 1 and CBX7 inh z-score 0.83.
Screening Cc1ccc(-c2nc3cc(NC(=O)c4cccnc4Cl)ccc3o2)cc1 returned CBX7 inh 1 and CBX7 inh z-score 0.033.
Screening O=C(O)c1ccc2c(c1)NC(=O)C(CS(=O)(=O)Cc1cccc(Br)c1)N2 (configuration not stated) returned CBX7 inh 1 and CBX7 inh z-score 0.15.
For O=C(CCCCN1CCC(c2ccccc2)C1)c1ccc(F)cc1 (configuration not stated) the results were CBX7 inh 1.4 and CBX7 inh z-score 0.94.
`COc1ccc(-c2cc3nc(C)c(CCC(=O)NCCc4ccc(Cl)cc4)c(C)n3n2)c(OC)c1` gave CBX7 inh 1.1 and CBX7 inh z-score 1.7.
Screening COc1ccc(CNCCC2CCOC(C)(C)C2)cc1 (configuration not stated) returned CBX7 inh 1 and CBX7 inh z-score 0.79.
For O=C(CN1C(=O)COc2ccccc21)NCC1CCCO1 (configuration not stated) the results were CBX7 inh 1 and CBX7 inh z-score 0.42.
Screening CCCN(CCC)CCNc1cc(C)nc2c(-c3ccccc3OC)c(C)nn12 returned CBX7 inh 1.1 and CBX7 inh z-score 0.14.
`O=C(C1CCC1)N1CCc2cc(S(=O)(=O)N3CCN(c4ccccc4)CC3)ccc21` gave CBX7 inh 0.97 and CBX7 inh z-score -0.93.
Screening Cc1ccc(NC(=O)CC(C)CC2=NS(=O)(=O)c3ccccc3N2)cc1 (configuration not stated) returned CBX7 inh 1 and CBX7 inh z-score 0.16.
For COc1ccc(C(=O)Nc2cccc(-c3nc4ncccc4o3)c2)cc1 the results were CBX7 inh 0.98 and CBX7 inh z-score -0.37.
Screening Cc1ccc(Oc2ccc(C(F)(F)F)cc2NC(=O)c2cccnc2)cc1 returned CBX7 inh 0.92 and CBX7 inh z-score -0.28.
`O=C(CCc1nc(-c2ccccc2F)no1)Nc1cccnc1` gave CBX7 inh 0.9 and CBX7 inh z-score -1.6.
`Cc1ccc(NC(=O)N(CCCN2CCOCC2)Cc2cccnc2)cc1C` gave CBX7 inh 1.1 and CBX7 inh z-score 0.11.
Screening CCOc1ccc(NS(=O)(=O)c2ccc3[nH]cc(C(=O)N(C)C4CCCCC4)c(=O)c3c2)cc1 returned CBX7 inh 0.77 and CBX7 inh z-score -3.2.
For Cc1ccc(NC(=O)Cn2c(SCc3cc(C)ccc3C)nc3ccncc32)c(Cl)c1 the results were CBX7 inh 1 and CBX7 inh z-score 2.
`COc1ccccc1C(O)c1nccn1C` (configuration not stated) gave CBX7 inh 0.84 and CBX7 inh z-score -1.7.
For Cc1nnc(NC(=O)c2ccc(S(=O)(=O)N3CCOCC3)cc2)o1 the results were CBX7 inh 0.51 and CBX7 inh z-score -0.65.
`CN(C)c1ccc(-c2nc3cnccn3c2Nc2ccc3c(c2)OCCO3)cc1` gave CBX7 inh 1 and CBX7 inh z-score 0.44.
Cc1nc(N2CCC(C)CC2)c2c3c(sc2n1)CCCC3 was read as CBX7 inh 1 and CBX7 inh z-score 0.045.
COc1cccc(C2CC(c3ccc(OC(F)F)cc3)n3ncnc3N2)c1 (configuration not stated) was read as CBX7 inh 1 and CBX7 inh z-score 0.18.
For Cc1[nH]c2ccccc2c1CCNC(=O)c1ccc(Cl)c(Cl)c1 the results were CBX7 inh 0.91 and CBX7 inh z-score -2.2.
`Cc1cc2nc(Cc3cc(Br)ccc3F)c(=O)[nH]c2cc1C` gave CBX7 inh 0.99 and CBX7 inh z-score -0.21.
`Cc1ccc(CSc2nnc(-c3ccncc3)n2CC(C)C)cc1` gave CBX7 inh 0.97 and CBX7 inh z-score -0.28.
`Cc1ccc(CNC(=O)c2cnn3c(C(F)F)cc(-c4ccccc4)nc23)cc1` gave CBX7 inh 0.99 and CBX7 inh z-score -0.27.
`COc1cc(OC)cc(C(=O)Nc2ccc(Cl)c(-c3nc4cc(C)ccc4o3)c2)c1` gave CBX7 inh 1 and CBX7 inh z-score 0.49.
For CCOc1ccc(NC(=O)c2cc3c(n(-c4ccc(C)cc4)c2=O)CC(C)(C)CC3=O)cc1 the results were CBX7 inh 0.92 and CBX7 inh z-score -0.51.
`CCCOC1C=CC(Oc2nc(NCC)cc(N(C)C)n2)=NN1` (configuration not stated) gave CBX7 inh 0.83 and CBX7 inh z-score -1.9.
Cc1oc(-c2cccc(Cl)c2)nc1CSCC(=O)O was read as CBX7 inh 0.99 and CBX7 inh z-score -0.48.
`Cc1ccc(OCC(=O)Nc2cc(-c3nc4ncccc4o3)ccc2Cl)cc1` gave CBX7 inh 0.99 and CBX7 inh z-score -0.38.
For Cc1ccc2cc(CCNC(=O)c3ccc4c(c3)OCO4)c(=O)[nH]c2c1C the results were CBX7 inh 1 and CBX7 inh z-score 0.091.
Screening CCCCOc1ccc(C(=O)N(Cc2cccs2)C2CCS(=O)(=O)C2)cc1 (configuration not stated) returned CBX7 inh 1 and CBX7 inh z-score 0.3.
For O=C(NCc1ccc(Cl)cc1)c1cnn2c(C(F)(F)F)cc(-c3ccccc3)nc12 the results were CBX7 inh 1.1 and CBX7 inh z-score 0.36.
`Cc1ccc(CNCc2c(C(=O)O)c(C)n(Cc3ccccc3)c2C)cc1` gave CBX7 inh 0.96 and CBX7 inh z-score -1.2.
Screening COc1ccc2c(c1)Cc1sc(NC(=O)c3ccccc3OC)nc1-2 returned CBX7 inh 1.1 and CBX7 inh z-score 1.8.
Screening COc1cc(OC)cc(-c2cc3nc(C)c(CCC(=O)Nc4ccc(F)cc4)c(C)n3n2)c1 returned CBX7 inh 1.2 and CBX7 inh z-score 2.9.
`CCc1ccccc1Nc1cc(C(=O)NCc2ccc3c(c2)OCO3)c2ccccc2n1` gave CBX7 inh 1.1 and CBX7 inh z-score 2.2.
O=C(CN1C(=O)COc2ccc(S(=O)(=O)N3CCCCCC3)cc21)N1CCC2(CC1)OCCO2 was read as CBX7 inh 1.1 and CBX7 inh z-score 0.2.
For O=C1N(CCCc2ccccc2)c2ccccc2C1(O)c1c[nH]c2ccccc12 (configuration not stated) the results were CBX7 inh 0.76 and CBX7 inh z-score -6.4.

2 records drawn at random from the list so far:
`Cc1ccc(OCC(=O)Nc2cc(-c3nc4ncccc4o3)ccc2Cl)cc1` gave CBX7 inh 0.99 and CBX7 inh z-score -0.38.
For Cc1ccc2cc(CCNC(=O)c3ccc4c(c3)OCO4)c(=O)[nH]c2c1C the results were CBX7 inh 1 and CBX7 inh z-score 0.091.

(cont.)
For Cc1ccc(C)c(-c2csc(Nc3cccc4ccccc34)n2)c1 the results were CBX7 inh 0.91 and CBX7 inh z-score -0.69.
`CCCCN(CCCC)S(=O)(=O)c1ccc2oc(C(=O)NCc3ccccc3)c(C)c2c1` gave CBX7 inh 1.5 and CBX7 inh z-score 11.
`COc1ccc(OCC(=O)Nc2cc(-c3nn(C)c(=O)c4ccccc34)ccc2OC)cc1` gave CBX7 inh 0.94 and CBX7 inh z-score -2.
CC(=O)C1C(c2ccc(Cl)cc2)c2c(noc2C)CC1(C)O (configuration not stated) was read as CBX7 inh 0.94 and CBX7 inh z-score -0.65.
`Cc1ccc(CNC(=O)c2ccc3c(c2)N(Cc2ccccc2C)C(=O)CS3)cc1` gave CBX7 inh 1.2 and CBX7 inh z-score 1.9.
Screening COc1ccc(OCC(=O)Nc2ccc(-c3nc4cc(C)c(C)cc4o3)cc2)cc1 returned CBX7 inh 1 and CBX7 inh z-score 1.
